Screening data deposited in PubChem BioAssay by National Center for Advancing Translational Sciences (NCATS).
VDR inh: Inhibitors of the vitamin D receptor (VDR): qHTS | Vitamin D3 receptor (Homo sapiens), P11473 | VDR-SRC2-3 peptide fluorescence polarization, 2 h | 400,000 tested, 0.93% active | Potency, µM, for inactives: max response, negative = inhibition, most hits filed as inhibitors; active = well fitted inhibition curve with a large enough effect; inconclusive = small, poorly fitted or top-dose-only effect, or another doubt; inactive = no such curve, though single readings can be large or run the other way; note: series mostly up to about 120 µM
Target sequence (P11473 whole entry, looked up): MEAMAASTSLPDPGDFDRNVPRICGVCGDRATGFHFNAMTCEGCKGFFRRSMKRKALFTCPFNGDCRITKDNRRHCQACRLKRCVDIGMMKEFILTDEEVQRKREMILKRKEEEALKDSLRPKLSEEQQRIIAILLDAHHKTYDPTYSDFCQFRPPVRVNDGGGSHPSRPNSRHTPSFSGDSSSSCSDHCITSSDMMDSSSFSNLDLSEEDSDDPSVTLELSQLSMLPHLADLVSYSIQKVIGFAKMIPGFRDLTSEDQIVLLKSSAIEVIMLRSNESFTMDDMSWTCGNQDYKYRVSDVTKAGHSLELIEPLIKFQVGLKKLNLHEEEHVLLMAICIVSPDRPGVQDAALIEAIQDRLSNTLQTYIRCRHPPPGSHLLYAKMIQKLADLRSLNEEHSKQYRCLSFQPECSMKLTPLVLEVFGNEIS
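Fluorescence polarization assay measuring small-molecule disruption of VDR binding to the coregulator peptide SRC2-3. Compounds were pin-transferred (23 nl) into the reagent mix and incubated 2 h at room temperature before reading.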
Numbers without * were called inactive; ? = inconclusive; & = joins results of further samples. % is set by controls: 0 for no effect and ±100 for the full control effect; potency is the fitted concentration of half-maximal effect. These rows are one share of the data, so the mix of outcomes need not match the whole.

SMILES	VDR inh
O=C(CN(C(=O)CCC(=O)Nc1nccs1)c1cccc(C(F)(F)F)c1)NCC1CCCO1 (stereo not drawn)	-8.7%
O=C(CSCc1ccc(Cl)cc1)N1CCOCC1	-11.6%
CC(C)(C)c1ccc(C(=O)NCC(=O)N/N=C/c2cccs2)cc1	-19.1%
COc1ccc2nc(/N=C/c3c(C)[nH]n(-c4ccc(C)cc4)c3=O)sc2c1	-27.8%
COc1cc(/C=N/NC(=O)c2cccc([N+](=O)[O-])c2)ccc1O	3.3%
O=C1CNC(=O)/C(=C/c2cccs2)N1	-1.3%
COC(=O)CC1Oc2ccc(Cl)cc2-n2cc(-c3ccc(C)cc3)nc21 (stereo not drawn)	17.2%
NS(=O)(=O)c1ccc(CCNC(=O)c2coc3ccccc3c2=O)cc1	1.2%

Continued.
SMILES	VDR inh
OC1(CNCc2cn[nH]c2-c2cc3ccccc3o2)CCCCC1	4.8%
COc1cccc(CC2(CO)CCCN(Cc3sc(N4CCCC4)nc3Cl)C2)c1 (stereo not drawn)	6.5%
CCc1ccc(NC(=O)CSc2nc3nccnc3c(=O)n2CCc2c[nH]c3ccccc23)cc1	13.9%
NS(=O)(=O)c1ccc(NS(=O)(=O)/C=C/c2ccccc2)cc1	14.6%
COc1ccc(S(=O)(=O)Nc2cccc(C)c2C)c2cccnc12	-6.4%
COc1ccc(C(C(=O)NC(C)(C)C)N(C[C@H]2CC[C@@H]([C@@H]3CC[C@H](CO)O3)O2)C(=O)c2ccccc2)cc1 (stereo partly drawn)	4.1%
CCCCC(=O)Nc1ccc2c(c1)nc1n2CCOC1	-19.2%
O=C(Nc1ccc(Cl)cc1)N(CCCN1CCOCC1)Cc1cccs1	-13.1%

Next part (five carried over from the part before).
SMILES	VDR inh
NS(=O)(=O)c1ccc(NS(=O)(=O)/C=C/c2ccccc2)cc1	14.6%
COc1ccc(S(=O)(=O)Nc2cccc(C)c2C)c2cccnc12	-6.4%
COc1ccc(C(C(=O)NC(C)(C)C)N(C[C@H]2CC[C@@H]([C@@H]3CC[C@H](CO)O3)O2)C(=O)c2ccccc2)cc1 (stereo partly drawn)	4.1%
CCCCC(=O)Nc1ccc2c(c1)nc1n2CCOC1	-19.2%
O=C(Nc1ccc(Cl)cc1)N(CCCN1CCOCC1)Cc1cccs1	-13.1%
Cc1oc2ncn(CC(C)C)c(=O)c2c1C(=O)N(Cc1ccccc1)C(C)C	7.6%
CC(C)c1nnc(NC(=O)CSc2ccccc2)s1	-7.8%
Cc1cc(OC(=O)c2cccc(Br)c2)c([N+](=O)[O-])c(=O)[nH]1	-9.8%
Cc1ccc(Sc2ncccc2C(=O)O)cc1	16.0%
Cc1cc(C)nc(SCc2nnc(SCC(=O)Nc3ccc(Cl)c(C(F)(F)F)c3)o2)n1	8.2%
Cc1nn(Cc2noc(C(=O)NCc3cccc(F)c3)n2)c(C)c1Br	-4.3%
CC(=O)c1cccc(NC(=O)CN(C2CCCCC2)S(C)(=O)=O)c1	-5.5%
CCc1ccc(NC(=O)C(=O)NCCc2csc(-c3ccc(C(F)(F)F)cc3)n2)cc1	5.2%

(cont.)
SMILES	VDR inh
S=C(Nc1ccc(Cl)cc1)NC1CCCCC1	4.3%
CC(C)(C)N(Cc1ccccc1)C(=O)COC(=O)Cn1cnc2ccccc2c1=O	-18.9%
O=C(COC(=O)Cc1ccsc1)Nc1ccc(F)cc1Cl	4.6%
Cc1ccc(-n2c(SCC(=O)N3CCC(C(=O)O)CC3)nc3ccccc3c2=O)cc1C	-3.0%
CCOc1ccccc1NC(=O)CSc1nc2[nH]ncc2c(=O)[nH]1	-12.4%
CC(Oc1ccc(F)cc1)C(=O)Nc1cc(S(=O)(=O)N2CCOCC2)ccc1N1CCCC1 (stereo not drawn)	-7.1%
C/C(=N\Nc1ccc(Cl)cc1)c1ccncc1	-21.2%
Cc1cc(C)n2nc(C(=O)OCC(=O)c3cc(C)n(CC4CCCO4)c3C)nc2n1 (stereo not drawn)	4.5%

(next part)
SMILES	VDR inh
CCOC(=O)c1cnn(-c2ccccc2)c1-n1cccc1	10.4%
COc1ccc(N(CC(=O)Nc2ccc(S(=O)(=O)N3CCOCC3)cc2)S(=O)(=O)c2ccccc2)cc1	5.2%
CN1CCN(NC(=O)CN2C(=O)S/C(=C\c3c(Cl)cccc3Cl)C2=O)CC1	-9.1%
CC(C)C[C@H](NC(=O)CCn1nnc2ccccc2c1=O)C(=O)O	-11.4%
CCOC(=O)c1cnc2c(C)cc(C)cc2c1Nc1ccc(OCc2ccccc2)cc1	-0.1%
COc1ccc2cc(C(c3nnnn3CCc3ccccc3)N3CCC(O)CC3)c(=O)[nH]c2c1 (stereo not drawn)	-0.3%
Cc1cccc(-n2nnc(C(=O)NCc3ccco3)c2N)c1	6.1%
Cc1cccc(N2C(=O)C(CC(=O)Nc3cccc(F)c3)N(CCc3ccncc3)C2=O)c1 (stereo not drawn)	11.8%&-8.8%

Next structures:
SMILES	VDR inh
NS(=O)(=O)c1cccnc1Nc1cccc(Cl)c1	8.6%
CCN(CC)C(=O)c1[nH]cnc1C(=O)N[C@@H](CC(C)C)C(=O)OC(C)(C)C	-15.3%
O=C(Cc1nnc(NC(=O)Nc2ccc(F)cc2)s1)Nc1ccccc1	-6.0%
COc1cc(/C=C/C(O)=C/C(=O)/C=C/c2ccc(O)cc2)ccc1O	1.5%
C=CCn1c(-c2ccc(F)cc2)n[nH]c1=S	-2.9%
O=C(Cn1c(=O)nc(-c2ccccc2)c2cc(Cl)ccc21)N1CCN(c2ccc(F)cc2)CC1	-2.6%
CCO[C@H]1OC(C(=O)NC2CC2)=C[C@@H](c2ccccc2)[C@@H]1CCCO	2.9%
O=C(COC(=O)CNC(=O)c1cccc([N+](=O)[O-])c1)Nc1ccccc1OC(F)F	-8.2%

Next compounds follow:
SMILES	VDR inh
CCOC(=O)N1CCN(C(=O)c2cccn3c(=O)c4c5c(sc4nc23)CCCC5)CC1	12.5%
CN(C)c1ccc(C(=O)N2CCCC(N3CCN(Cc4ccc5c(c4)OCO5)CC3)C2)cc1 (stereo not drawn)	-2.2%
O=C(CS(=O)(=O)c1cn(Cc2cccc(F)c2)c2ccccc12)N1CCOCC1	-4.7%
O=C(NC(NC(=S)Nc1ccc(Cl)cc1)C(Cl)(Cl)Cl)c1ccco1 (stereo not drawn)	-16.7%
COc1cc(/C=C/C(=O)OCC(=O)N2CCC(Cc3ccccc3)CC2)ccc1O	-7.1%
CCC(CC)C(=O)N1CCCC(c2nc(-c3cccs3)no2)C1 (stereo not drawn)	?
O=C(CSc1ncnc2nc[nH]c12)c1ccc(Cl)cc1	?
COc1ccccc1[C@@H]1C(c2cccc(C)c2)=NN(c2ccc(Br)cc2)[C@H]1C(=O)N1CCOC1=O	1.3%&-17.2%

Pulled by structure from the list above (three):
SMILES	VDR inh
CCc1ccc(NC(=O)C(=O)NCCc2csc(-c3ccc(C(F)(F)F)cc3)n2)cc1	5.2%
COc1ccccc1[C@@H]1C(c2cccc(C)c2)=NN(c2ccc(Br)cc2)[C@H]1C(=O)N1CCOC1=O	1.3%&-17.2%
COc1cc(/C=C/C(=O)OCC(=O)N2CCC(Cc3ccccc3)CC2)ccc1O	-7.1%

Next part
canonical_smiles | VDR inh
Cc1onc(-c2ccccc2)c1C(=O)N1CCN(c2ncccc2C(F)(F)F)CC1 | -17.9%
CCCn1nc(C(=O)N2CCCc3ccccc32)c2ccccc2c1=O | 9.2%
O=C(COC(=O)CCC1CCCC1)Nc1nc2c(F)c(F)c(F)cc2s1 | 23.3%
CCN1CCN(c2cc(C)c3cc(NC(=O)CCC(=O)Nc4ccc(OC)cc4OC)ccc3n2)CC1 | -17.3%
O=C(Nc1ccc2c(c1)OCO2)N1CCN(Cc2ccco2)CC1 | -18.0%
Cc1cccc2cc(C(c3nnnn3Cc3ccc4c(c3)OCO4)N3CCCC3)c(=O)[nH]c12 (stereo not drawn) | 11.5%
O=C(CSc1nc2sc3c(c2c(=O)[nH]1)CCCC3)Nc1ccccc1F | -2.3%
Oc1ccc(N=Nc2ccccc2)cc1 | 0.4%
COc1ccc(N/C=C(\C#N)S(=O)(=O)c2ccc(Cl)cc2)c(OC)c1 | 4.8%
O=c1[nH]c2cc(Cl)ccc2c(O)c1-c1ccc(Oc2ccccc2)cc1 | 2.6%
Cc1ccc2c(=O)c(C(=O)c3cccc(Cl)c3)cn(CC(=O)NC3CCCCC3)c2n1 | 19.1%
COc1ccc(-c2cc(C(F)(F)F)nc(SCCC(=O)N3CCN4CCCC4C3)n2)cc1 (stereo not drawn) | 21.5%
CCC(C)CCCCC(=O)NC(CCN)C(=O)NC(C(=O)NC(CCN)C(=O)NC1CCNC(=O)C(C(C)O)NC(=O)C(CCN)NC(=O)C(CCN)NC(=O)C(CC(C)C)NC(=O)C(Cc2ccccc2)NC(=O)C(CCN)NC1=O)C(C)O (stereo not drawn) | -0.4%
COc1ccc(-n2c(=O)c3c4c(sc3n(CC(=O)NCC3CCCO3)c2=O)CCCC4)c(OC)c1 (stereo not drawn) | 22.4%
O=C(CSc1nc2ccccc2c(=O)[nH]1)c1cccs1 | -5.8%
O=C(COC(=O)CCSc1ccccc1)NCc1ccc(F)cc1 | 4.1%
O=S(=O)(c1ccccc1)c1nc(-c2ccco2)oc1Nc1ccccc1 | 2.7%
Cc1ccc(-c2cc(C(=O)Nc3c(C)n(C)n(-c4ccccc4)c3=O)no2)cc1 | 19.8%
Nc1c(N=O)c(=O)[nH]c(=O)n1-c1ccccc1 | -11.7%
Cc1cc(C)cc(NC(=O)N(CCC#N)Cc2cccs2)c1 | 1.9%
COc1ccc(-n2c(C)cc(-c3csc(NC(=O)c4ccc(S(=O)(=O)N(C)C)cc4)n3)c2C)cc1 | 3.6%
NNC(=O)c1cccc(O)c1 | -4.1%
C=CCOc1ccc2c(c1)CCC1C2CCC2(C)C(O)C(O)CC12 (stereo not drawn) | 15.9%
COc1ccc(CCNC(=O)c2ccc(Cl)c(S(=O)(=O)N3CCCCCC3)c2)cc1 | -9.0%
CCCSc1nc2c3c(sc2c(=O)[nH]1)CC(C)(CC)OC3 (stereo not drawn) | 8.5%
CCN(CC)CCOCCOC(=O)C(CC)(CC)c1ccccc1 | -10.0%
C=CCN1C(=Nc2ccccc2)SC/C1=C\C(=O)OC | 8.4%
O=C(CS(=O)(=O)Cc1ccccc1)NCc1ccco1 | 10.8%
O=Cc1cccn1-c1ccccc1 | 2.0%
CCn1cc(CN2CCC(Oc3ccc(C(=O)N4CCCCC4)cc3)CC2)cn1 | -3.9%

Some of the entries above in another layout.
COc1ccc(-c2cc(C(F)(F)F)nc(SCCC(=O)N3CCN4CCCC4C3)n2)cc1 (stereo not drawn)
  VDR inh: 21.5%

Oc1ccc(N=Nc2ccccc2)cc1
  VDR inh: 0.4%

Later entries
canonical_smiles | VDR inh
O=C(COC(=O)c1cccc(S(=O)(=O)N2CCOCC2)c1)NCCc1ccccc1 | 8.0%
O=C(CSc1nnnn1-c1cccc2c1CCCC2)N1CCOCC1 | -5.1%
COc1cc(C(=O)NCCSc2c(-c3ccccc3)[nH]c3ccccc23)cc(OC)c1OC | 4.9%
COc1cccc(C(=O)CC(=O)C(=O)Nc2cc(Cl)c(OC)cc2OC)c1 | -11.3%
CC1CCc2c(sc3nc(CN4CCN(S(=O)(=O)c5ccccc5[N+](=O)[O-])CC4)[nH]c(=O)c23)C1 (stereo not drawn) | 3.3%
Cc1ccc(NC(=O)C2CCN(C(=O)NCc3ccccc3)CC2)cc1C | 5.7%
O=[N+]([O-])c1c(O)c(Cl)cc(Cl)c1Cl (tested in a mixture with another compound) | 11.1%
O=C(CN(c1cccc(Br)c1)S(=O)(=O)c1ccccc1)N/N=C/c1cc([N+](=O)[O-])ccc1O | 18.5%
NC(N)=Nc1ccc(N=C(N)N)cc1 | -12.1%
CCn1cc(C(=O)N[C@@H](C)C(=O)NCCCn2ccnc2)c(=O)c2cc3c(cc21)OCO3 | 6.1%
O=C(Cc1ccc(Cl)cc1)NC1CC(=O)N(c2ccc3c(c2)OCCO3)C1 (stereo not drawn) | 9.8%
COc1ccc(OC)c(NC(=O)CCNC(=O)c2ccco2)c1 | 12.1%
COc1cc(-c2nc(-c3ccncc3)no2)cc(OC)c1OC | -5.6%
Cc1cc(=O)oc2cc(OCc3cc4c(cc3Cl)OCO4)ccc12 | -18.5%
Cc1cc(C)c(OCC(=O)OC(C)C(=O)NC2CC2)c(C)c1 (stereo not drawn) | 2.7%
CCc1nn(CC(=O)NCCCN2CCN(C)CC2)c(=O)c2cc3sc(C)cc3n12 | -8.5%
CCN1C(=O)C(CC(=O)Nc2ccc(OC)cc2)N(Cc2cccs2)C1=S (stereo not drawn) | 4.4%
COC(=O)[C@]1(Cc2ccccc2)N[C@H](CN(C)C(=O)c2ccc(F)cc2)[C@@H]2C(=O)N(Cc3ccccc3)C(=O)[C@@H]21 | -9.4%
CCOC(=O)C1C2C=CC3(CN(Cc4ccccc4)C(=O)C13)O2 (stereo not drawn) | 6.4%
CN1C(=O)CC(C(=O)Nc2ccccc2F)SC1=Nc1ccc2c(c1)OCO2 (stereo not drawn) | 7.5%
Nc1nccnc1C(=O)OCC(=O)N1CCN(S(=O)(=O)c2ccc(Cl)cc2)CC1 | -6.6%
CS(=O)(=O)c1ccc2nc(NC(=O)CCS(=O)(=O)c3ccccc3)sc2c1 | 5.9%
CC(C)CCOc1ccc(/C=C2\CCn3c2nc2cc(C(=O)O)ccc2c3=O)cc1 | -28.5%
O=C(CCS(=O)(=O)c1ccccc1)N1CCOCC1 | -9.8%
COCCOc1cc(N(CC(=O)N(C)C)S(=O)(=O)c2ccccc2)c(Cl)cc1Cl | 22.6%
Cc1nc2ccc(NC(=S)N3CCCC3)cc2nc1C | -21.7%
O=C(COC(=O)c1cc(S(=O)(=O)N2CCOCC2)ccc1F)NCc1ccco1 | -1.5%
CN(C)C(=O)COc1ncnc2sc(-c3ccccc3)cc12 | 2.0%
